PABP polyA inh: PABP-poly(A) binding inhibition | P11940 | PABP-poly(A) RNA binding, fluorescence polarization | inhibition, % at 35 µM | 290,000 tested, 1% active | AID 2014;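 active means 50% or more with normal probe brightness, or confirmed in later tests; about a fifth of its hits are not listed in these tables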;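 further: calls also rest on retests at 20 µM and on dose response follow-up; controls were probe without protein and protein plus probe with vehicle; some compounds called inactive have numbers as strong as hits; many hits fall short of the cut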
MT1-MMP act inh: MT1-MMP (human) activation inhibition | 360,000 tested, 0.061% active | GFP/RFP ratio change, % at 20 µM | AID 651647 | HT1080 RFP-PRO-GFP cells, GFP/RFP ratio fluorescence, overnight; percent of plate control window, DMSO zero;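 active means GFP/RFP ratio change of at least 30% with cell ATP level not reduced by more than half and red fluorescence within 50% of control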; further: strong numbers were not always called active
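Material: RFP-PRO-GFP reporter HT1080 cells. Dosing: single-point 20 µM compound, 1% DMSO. Controls: DMSO and RFP-L50D-GFP cell wells. Timing: cells overnight before dosing, compound overnight, 37 °C, 5% CO2. Measure: GFP/RFP fluorescence ratio.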
CSC inhib: blocks cancer stem cells. cancer stem cell-like cells viability, luminescence. inhibition, % at 7.5 µM. 300,000 tested, 1.1% active. AID 2717;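 active means mean at 75% or more and at least half the replicates too; tested in HMLE shEcad cells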;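 further: 0% = median of negative and 100% = median of positive control wells; the first replicate is given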
Yeast UUG start: alters start codon recognition fidelity in yeast. activity score, % at 18.7 µM. 350,000 tested, 0.13% active. S. cerevisiae UUG-firefly luciferase reporter, luminescence/redox ratio;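 active means replicate mean at a twofold rise or more, about +100% in these data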;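 further: firefly luciferase made from a UUG start codon reports start codon fidelity; reporter light over untreated wells divided by growth signal over untreated wells; some hits fall short of that in this replicate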
eIF4H FP inh: inhibitors of RNA binding by human eIF4H; eIF4H fluorescence polarization binding assay; AID 2012; inhibition, % at 35 µM; Q15056; 290,000 tested, 0.94% active;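 active means 50% or more with normal probe brightness, or confirmed in later tests; about a fifth of its hits are not listed in these tables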;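 further: calls also rest on retests at 20 µM and on dose response follow-up; 0% = protein and probe with vehicle and 100% = probe without protein; strong numbers were not always called active; many hits fall short of the cut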
Rce1 inhib: inhibitors of yeast Ras-converting enzyme | Q03530 | yeast membranes, quenched prenylated peptide cleavage fluorescence | AID 2563 | 290,000 tested, 0.27% active | calls only;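 active means fall in fluorescence gain of 50% or more versus controls, with final raw signal at or below 3038400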;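 further: plate controls were neutral control wells for no effect and wells lacking membranes for full effect; tested at 10 µM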
Target sequence (Q03530 whole entry, looked up): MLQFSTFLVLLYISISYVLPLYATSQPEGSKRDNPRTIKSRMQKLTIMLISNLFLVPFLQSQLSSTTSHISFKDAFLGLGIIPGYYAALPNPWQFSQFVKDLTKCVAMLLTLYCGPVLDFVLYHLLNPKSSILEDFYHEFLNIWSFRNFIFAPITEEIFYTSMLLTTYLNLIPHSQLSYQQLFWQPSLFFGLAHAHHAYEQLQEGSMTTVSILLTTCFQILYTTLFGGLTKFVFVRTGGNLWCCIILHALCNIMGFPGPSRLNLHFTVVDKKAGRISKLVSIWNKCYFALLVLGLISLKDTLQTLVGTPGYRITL
Env fusion inh: blocks HIV Env-driven cell-cell fusion; HeLa-JRFL Env/CEM21 cell fusion, luciferase; inhibition, % at 12.3 µM; 360,000 tested, 1.1% active; AID 651610;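 active means mean replicate inhibition score of at least 50 and every replicate individually at or above 50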;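 further: 0% = plate neutral controls and 100% = maraviroc near 300 nM; one replicate is shown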
eIF4H FP inh retest: second read-out of eIF4H FP inh, no call of its own (marks repeat the call); inhibition, %; compound at 20 µM; confirmation average;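 mean of two retest wells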
PABP polyA inh retest: recorded beside PABP polyA inh, whose call it bears; inhibition, %; compound at 20 µM; confirmation repeats;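 mean of two retest wells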
MT1-MMP act inh RFP: recorded beside MT1-MMP act inh, whose call it bears; RFP signal change, %; measured here: RFP expression control read;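 0 = vehicle wells; hits needed this value within 50% of zero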
Starred values were filed as active, the others as inactive; i = inactive; x = no result given; & = joins results of further samples; [ ] = remark or other dose.

SMILES	PABP polyA inh	MT1-MMP act inh	MT1-MMP act inh RFP	CSC inhib	Yeast UUG start	eIF4H FP inh	Rce1 inhib	Env fusion inh	others
Cc1ccc(S(=O)(=O)N(CC(=O)NCc2cccs2)c2ccccc2)cc1	x	0.8	-0.8	x	-16.8	x	x	-34.4
O=C(C1=C[C@@H](C2CCCCC2)C[C@@H](OCCCCO)O1)N1CCOCC1	5.1	2.8	2.8	7.1	-2.7&-7.0	1.9	i	5.3[16.7 µM]
Cc1occc1-c1nnc(SCC(=O)N2CCCCC2)o1	-5.0	0.3	0.2	-23.6	-15.0	-2.5	i	-1.6
CC(=O)N1c2ccc(S(=O)(=O)NCCC(=O)N(C)Cc3ccccc3)cc2CC1C (stereo unspecified)	3.5	3.3	2.7	4.2	-15.6	-13.2	i	4.0
N/C(COc1ncn(-c2ccccc2)n1)=N\S(=O)(=O)c1ccc(Cl)cc1Cl	-1.6	-0.2	-0.9	-7.2	x	-7.0	i	2.1
O=C(c1ccc(Br)o1)N(Cc1ccccc1)c1ccccn1	-10.6	-4.2	2.7	-6.6	-11.8	-4.2	i	12.7
COc1ccc(N/C(C)=C2/C(=O)C(=O)N(CCO)C2c2ccc([N+](=O)[O-])cc2)cc1 (stereo unspecified)	-1.8	3.0	0.9	x	-17.7	1.7	i	x
CCOC(=O)c1ccccc1NC(=O)c1cccnc1	4.3	1.9	-4.8	-22.9	-13.7	-3.6	i	-50.4
O=C(O)c1cccc(COc2ccccc2Cl)c1	0.0	-2.5	3.1	-8.0	-90.0	-6.9	i	x
CC1CCC(NC(=O)COC(=O)C2CC3CCCC(C2)C3=O)CC1 (stereo unspecified)	x	1.5	0.1	-10.1	0.8	x	i	-180.9
NS(=O)(=O)c1ccc(NC(=O)COc2ncnc3c2cnn3-c2ccccc2)cc1	-6.9	-3.6	-2.5	-4.5	-12.7	-5.2	i	-0.9
c1ccc(CCc2nn3c(-c4ccncc4)nnc3s2)cc1	11.3	-18.7	-11.5	x	-16.5	-0.4	i	x
CN1CCN(c2ccc(CNS(=O)(=O)Cc3ccc(Cl)cc3)cc2)CC1	-3.2	-2.4	-4.9	31.6	x	2.7	i	-4.4
CCOC(=O)c1oc2ccccc2c1NC(=O)c1cccc(OC)c1	-7.4	-4.9	2.7	4.0	-11.7	-5.2	i	-67.0
O=C(CCCNC(=O)c1ccc(Cl)cc1)Nc1ccc(S(=O)(=O)Nc2ncccn2)cc1	-0.2	-0.3	2.4	-1.5	-15.0	-7.3	i	2.7
CCOc1ccc(C(=O)Nc2cccc(NC(=O)c3cccs3)c2)cc1[N+](=O)[O-]	-8.1	3.4	1.6	x	-0.7	-14.5	i	4.8
Cc1ccccc1Nc1c(-c2cccnc2)nc2ccc(Br)cn12	-6.9	4.5	-2.7	3.6	x	-8.0	i	13.2
CCN1CCN(C(=O)c2ccc3c(=O)n(Cc4ccccc4OC)c(=S)[nH]c3c2)CC1	-10.4	-5.1	-3.1	30.6	2.4	-7.1	i	19.4
CCC(CC)c1nnc(NC(=O)c2ccc(N3CCCC3=O)cc2)s1	-3.4	8.9	-0.2	-4.3	-19.5	-1.8	i	5.9
CCOc1ccccc1NC(=O)CNS(=O)(=O)c1ccc2nc(C)sc2c1	12.5	-1.9	3.2	-11.1	x	3.8	i	1.6
CC(C(=O)OCC(=O)Nc1ccc2c(c1)OCO2)N1C(=O)c2ccccc2C1=O (stereo unspecified)	6.2	0.0	0.3	-3.6	-0.2	2.4	i	x
O=C(CN1CCN(c2ccc(O)cc2)CC1)Nc1cc(S(=O)(=O)N2CCCCC2)ccc1Cl	-6.1	-7.4	-13.9	61.1	x	-14.6	i	19.3
CCOC(=O)c1[nH]c2c(c1C)C(=O)CC(c1ccco1)C2 (stereo unspecified)	8.4*	15.7	-0.4	60.2	-13.2	99.3*	i	-444.3	eIF4H FP inh retest=95.1*;PABP polyA inh retest=94.1*
O=C1Nc2ccc(C(F)(F)F)cc2N2CCCC12 (stereo unspecified)	-10.5	x	x	16.3	x	-9.0	i	x
CCNC(=O)C1(C)CCN(C(=O)c2ccccc2F)C1 (stereo unspecified)	x	0.5	5.5	x	-17.2	x	x	-10.4

Continued; the last 6 above are carried over.
SMILES	PABP polyA inh	MT1-MMP act inh	MT1-MMP act inh RFP	CSC inhib	Yeast UUG start	eIF4H FP inh	Rce1 inhib	Env fusion inh	others
CCOc1ccccc1NC(=O)CNS(=O)(=O)c1ccc2nc(C)sc2c1	12.5	-1.9	3.2	-11.1	x	3.8	i	1.6
CC(C(=O)OCC(=O)Nc1ccc2c(c1)OCO2)N1C(=O)c2ccccc2C1=O (stereo unspecified)	6.2	0.0	0.3	-3.6	-0.2	2.4	i	x
O=C(CN1CCN(c2ccc(O)cc2)CC1)Nc1cc(S(=O)(=O)N2CCCCC2)ccc1Cl	-6.1	-7.4	-13.9	61.1	x	-14.6	i	19.3
CCOC(=O)c1[nH]c2c(c1C)C(=O)CC(c1ccco1)C2 (stereo unspecified)	8.4*	15.7	-0.4	60.2	-13.2	99.3*	i	-444.3	eIF4H FP inh retest=95.1*;PABP polyA inh retest=94.1*
O=C1Nc2ccc(C(F)(F)F)cc2N2CCCC12 (stereo unspecified)	-10.5	x	x	16.3	x	-9.0	i	x
CCNC(=O)C1(C)CCN(C(=O)c2ccccc2F)C1 (stereo unspecified)	x	0.5	5.5	x	-17.2	x	x	-10.4
CCc1cc(C(=O)Nc2ccc(S(=O)(=O)NC3=NCCCCC3)cc2)sc1C	x	-0.7	-7.2	-8.6	-8.5	x	i	-13.5
S=c1[nH]c2ccccc2c2ccccc12	7.0	-0.6	0.5	2.2	-15.9	6.1	i	-16.7
O=C(Nc1ccc2c(c1)OCO2)c1sc2cc(Cl)ccc2c1Cl	-3.4	7.2	4.9	6.6	-13.9	-4.0	i	x
COc1cc(C2NC(=O)NC(C)=C2C(=O)NCc2ccccc2)c(Cl)cc1O (stereo unspecified)	-0.9	2.7	0.7	-3.8	-11.3	-15.0	i	-60.4
O=C1CC(c2ccccc2)n2ncnc2N1 (stereo unspecified)	-3.5	3.7	6.8	3.8	-7.5	3.8	i	-43.7
O=C(NCc1cccnc1)C1CC(c2cccc(Br)c2)=NO1 (stereo unspecified)	4.4	-0.7	1.6	38.1	-21.1	-8.3	i	-5.3
Cc1ccc(CN2C(=O)c3ccccc3C2C(=O)NCC2CCCO2)cc1 (stereo unspecified)	3.7	4.3	6.8	15.5	-8.9	-2.5	i	0.5
COC(C)(C)[C@]12CC(O)(C(C)C)ON1[C@H]1CCCCC1N2O (stereo partly specified)	-5.5	-1.9	0.5	-20.6	-17.0	-9.2	i	x
CC1CCN(C(=O)Cn2ncc3c([nH]c4ccccc43)c2=O)CC1	2.5	7.2	5.3	-1.2	1.0	2.4	i	7.8
COc1ccccc1C(=O)CN1C(=O)NC2(CCc3ccccc32)C1=O (stereo unspecified)	x	-0.8	3.7	4.5	-10.6	x	i	6.5
O=C(CSc1nnc(-c2ccc(OC(F)F)cc2)o1)NC(=O)NCc1ccco1	31.1	0.1	2.7	1.1	-10.9	65.9*	i	x	eIF4H FP inh retest=68.2*;PABP polyA inh retest=37.7
O=C(Nc1cccc([N+](=O)[O-])c1)Nc1ccc2c(c1)OCCO2	1.7	4.1	-5.1	-6.3	x	-2.2	i	-125.2
CCCCC(=O)Oc1cc(C)[nH]c(=O)c1[N+](=O)[O-]	2.6	-0.6	7.5	-7.1	x	-3.3	x	13.0
COc1ccc(-c2cc(=O)oc3cc(O)ccc23)cc1	13.4	-19.1	-6.3	8.9	x	-5.5	i	35.6
COc1cccc(C2CC(c3cccs3)=NN2C(=O)CSc2nc3ccccc3s2)c1OC (stereo unspecified)	-8.3	-4.1	-1.7	-6.7	x	-5.0	i	22.0
CCCCNC(=S)N/N=C/c1ccccc1F	-3.7	4.3	-2.6	5.3	-19.8	-8.3	i	x
CN(C(=O)CN1C(=O)NC(c2ccccc2)(c2ccccc2)C1=O)C1CCS(=O)(=O)C1 (stereo unspecified)	x	1.8	0.1	-12.0	-2.1	x	x	x
Cc1cc(C)c(NC(=O)CNC(=O)[C@@H]2CCCN2C(=O)c2cccs2)c(C)c1	x	-2.2	1.1	x	-8.0	x	x	10.1
COc1ccccc1CNC(=O)CSc1nc2ccccc2c(=O)n1CCCN1CCOCC1	-12.5	-1.4	-1.4	-9.2	x	1.5	i	6.6
CCn1cc(S(=O)(=O)CC(=O)Nc2ccc3c(c2)OCCO3)c2ccccc21	-5.0	-2.6	-5.6	-9.3	6.0	-3.8	x	-44.7
CC(=O)OCC1(C)CN(c2ccccc2)NC1=O (stereo unspecified)	8.7	-1.4	5.7	36.2	x	4.7	i	1.3
O=C(CN(C1CCCCC1)S(=O)(=O)c1ccc(Cl)cc1)NCCCO	-6.3	-0.6	2.9	2.6	-8.5	2.9	i	-27.4
COc1ccc(NC(=O)CN2C(=O)NC3(CCCC3)C2=O)cc1	7.7	0.5	1.9	-1.2	-18.1	3.0	i	-0.8
Cc1cc(NS(=O)(=O)c2ccc(NC(=O)COc3ccc(Cl)cc3)cc2)no1	7.0	7.6	3.7	-11.2	x	2.7	i	x
O=C(NC(=S)NCc1ccccc1)c1ccc2c(c1)OCO2	-4.3	3.0	3.3	55.3	-14.8	-6.8	i	-1.1
Cc1cc(N/N=C/c2ccc(F)cc2)nc(-n2nc(C)cc2C)n1	-3.6	1.3	-9.3	4.8	-36.8	0.4	x	0.2
O=C(NC(Cc1ccccc1)C(=O)N1CCCCCC1)c1ccccc1 (stereo unspecified)	6.7	-3.4	0.3	x	0.2	-0.7	i	-3.6
CCCc1nn2c(=O)cc(COc3cccc(NC(=O)c4ccco4)c3)nc2s1	-0.2	-5.9	-0.7	-13.1	-10.0	-7.0	i	2.7
Cc1c(NC2=C(Cl)C(=O)N(c3ccccc3)C2=O)c(=O)n(-c2ccccc2)n1C	19.2	0.1	2.4	0.0	x	-1.5	i	-29.4
COCCNC(=O)C(=O)NCC1OCCN1S(=O)(=O)c1cccs1 (stereo unspecified)	-0.2	5.8	5.1	-2.8	-3.2	-5.7	i	1.6

Retrieved by compound from above:
SMILES	PABP polyA inh	MT1-MMP act inh	MT1-MMP act inh RFP	CSC inhib	Yeast UUG start	eIF4H FP inh	Rce1 inhib	Env fusion inh	others
COc1cccc(C2CC(c3cccs3)=NN2C(=O)CSc2nc3ccccc3s2)c1OC (stereo unspecified)	-8.3	-4.1	-1.7	-6.7	x	-5.0	i	22.0
O=C(CN(C1CCCCC1)S(=O)(=O)c1ccc(Cl)cc1)NCCCO	-6.3	-0.6	2.9	2.6	-8.5	2.9	i	-27.4
CCc1cc(C(=O)Nc2ccc(S(=O)(=O)NC3=NCCCCC3)cc2)sc1C	x	-0.7	-7.2	-8.6	-8.5	x	i	-13.5
O=C1CC(c2ccccc2)n2ncnc2N1 (stereo unspecified)	-3.5	3.7	6.8	3.8	-7.5	3.8	i	-43.7
Cc1ccc(CN2C(=O)c3ccccc3C2C(=O)NCC2CCCO2)cc1 (stereo unspecified)	3.7	4.3	6.8	15.5	-8.9	-2.5	i	0.5

Source: PubChem BioAssay (several laboratories)
